# Compound activity from PubChem BioAssay.
# Mtb H37Rv: Mycobacterium tuberculosis H37Rv growth inhibition, cell based, confirmatory dose response (AID 1949). inhibition, % at 10 µg/mL, or IC50 in µg/mL where a hit was titrated. most inactive calls were filed without a number and no value below 0 was filed. 100,000 tested, 1.6% active;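 active = confirmed in a dose series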;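 also: bacteria grown 7 days with compound before Alamar blue readout; 0% = untreated bacteria and 100% = reference antibiotic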
# * marks the source's active call; other numbers are inactive results; i = inactive. Only part of the results is shown; count on the stated rates, not on these rows.
item | canonical_smiles | Mtb H37Rv
1 | CCOC(=O)c1cnc2ccc(C(=O)OC)cc2c1Nc1ccc(F)cc1 | i
2 | C=CCNCCOc1ccccc1CC=C | i
3 | O=C(CSc1ncn[nH]1)Nc1ccccc1C(F)(F)F | i
4 | Cc1ccc(N2CCN(S(=O)(=O)c3ccc(F)c(C)c3)CC2)cc1C | i
5 | CC1=C(C(=O)N2CCOCC2)C(c2ccc(F)cc2)NC(=O)N1 (centres undefined) | i
6 | CCOc1cc(S(=O)(=O)NCc2ccco2)c(C)cc1C | i
7 | S=c1[nH]c2ccccc2n1Cc1ccccc1 | i
8 | CC12CCC(C(=O)NCC(F)(F)F)(OC1=O)C2(C)C (centres undefined) | i
9 | CCOc1cc(C=O)ccc1OCc1c(C)no[n+]1[O-] | 6%
10 | Cc1cccc(N(CC(=O)Nc2ccccc2C(=O)NC2CCCCC2)S(C)(=O)=O)c1 | i
11 | OCc1cn(-c2ccccc2)nc1-c1ccc2ccccc2c1 | 4.2µg/mL*
12 | CCC(C)c1ccc(NC(=S)NCc2cccnc2)cc1 (centres undefined) | i
13 | COc1cc2c(cc1NC(=O)c1ccc(F)cc1F)oc1ccccc12 | i
14 | O=S(=O)(c1ccc(Br)s1)N1CCN(c2ccccn2)CC1 | i
15 | COc1cc(CNCCO)ccc1OCc1ccccc1Cl | i
16 | CCc1cccc(C)c1NC(=O)C(C)Sc1ccccc1 (centres undefined) | i
17 | COc1ccc(N2CCN(C(=O)C3(C)CC3(Cl)Cl)CC2)cc1 (centres undefined) | i
18 | Cc1c(NC(=O)c2cccnc2)cccc1[N+](=O)[O-] | i
19 | O=S(=O)(NC1CCCC1)c1ccc(Br)s1 | 2%
20 | CC1(C)CC(=O)C2=C(C1)NC1=C(C(=O)c3ccccc31)C2c1ccc(C(F)(F)F)cc1 (centres undefined) | 30µg/mL*

# Compounds shown so far containing an aryl thioether with sulfur outside any ring, in the order listed:
item | canonical_smiles | Mtb H37Rv
3 | O=C(CSc1ncn[nH]1)Nc1ccccc1C(F)(F)F | i
16 | CCc1cccc(C)c1NC(=O)C(C)Sc1ccccc1 (centres undefined) | i

# Following part
item | canonical_smiles | Mtb H37Rv
21 | CC1CC(C)CN(c2c([N+](=O)[O-])c(=O)n(-c3ccccc3)c3ccccc23)C1 (centres undefined) | i
22 | O=C(CNC(=O)Cc1ccccc1)NCc1ccco1 | 2%
23 | CCCC(C)c1nnc(NC(=O)C(Cl)Cl)s1 (centres undefined) | i
24 | Cc1ccc(N(Cc2ccc(C(=O)NCc3ccc4c(c3)OCO4)cc2)S(C)(=O)=O)cc1C | 0%
25 | COc1cc(OC)cc(C(=O)Nc2ccccc2C(=O)Nc2ccccc2Cl)c1 | i
26 | Cc1sc(NCc2cc(Cl)ccc2O)nc1-c1ccc(F)cc1 | 14%
27 | COCCCNC(=O)c1ccccc1Oc1ccccc1 | 2%
28 | COc1ccc(OCC#CCNC(C)(C)C)cc1 | i
29 | C=CCOc1ccc(CNc2ccc(NC(=O)CCC)cc2)cc1OC | i
30 | CCOc1ccc(C2NC(=S)NC(C)=C2C(=O)Nc2ccc(C)cc2)cc1 (centres undefined) | 5%
31 | CCOC(=O)c1cc(C(=O)OCC)cc(-n2cc(O)c(C(=O)OCC)n2)c1 | i
32 | CCN(CC)C(=O)c1ccc(OC)cc1 | 15%
33 | O=C(CC12CC3CC(CC(C3)C1)C2)NC(=S)Nc1ccc(N2CCOCC2)cc1 | i
34 | COc1ccc(NC(=O)NNC(=O)C2CC2c2ccc(C(C)(C)C)cc2)c(OC)c1 (centres undefined) | i
35 | CC(C)CC(NC(=O)CC12CC3CC(CC(C3)C1)C2)C(=O)NC1=NCCS1 (centres undefined) | i
36 | S=C(c1cccnc1)N1CCOCC1 | i
37 | Cc1ccc(S(=O)(=O)Nc2ccc(NC(=S)Nc3ccc4c(c3)OCO4)cc2)cc1 | i
38 | CSc1nnc2c(n1)OC=Nc1ccc(Cl)cc1-2 | i
39 | COc1ccc(CCNC(=S)NCCCn2nc(C)c(Br)c2C)cc1OC | i
40 | CCC(CC)C(=O)NCCCCc1ccccc1 | i

# An excerpt from above in order of SMILES length, low to high.
item | canonical_smiles | Mtb H37Rv
32 | CCN(CC)C(=O)c1ccc(OC)cc1 | 15%
40 | CCC(CC)C(=O)NCCCCc1ccccc1 | i
29 | C=CCOc1ccc(CNc2ccc(NC(=O)CCC)cc2)cc1OC | i
25 | COc1cc(OC)cc(C(=O)Nc2ccccc2C(=O)Nc2ccccc2Cl)c1 | i
31 | CCOC(=O)c1cc(C(=O)OCC)cc(-n2cc(O)c(C(=O)OCC)n2)c1 | i
21 | CC1CC(C)CN(c2c([N+](=O)[O-])c(=O)n(-c3ccccc3)c3ccccc23)C1 (centres undefined) | i
24 | Cc1ccc(N(Cc2ccc(C(=O)NCc3ccc4c(c3)OCO4)cc2)S(C)(=O)=O)cc1C | 0%

# The results go on:
item | canonical_smiles | Mtb H37Rv
41 | CCc1ccc(CN2CCC(N3CCOCC3)CC2)cc1 | i
42 | O=C(CCN1C(=O)C2C3C=CC(C3)C2C1=O)Nc1ccccn1 (centres undefined) | i
43 | COc1cc(-c2nc3ccccc3n2C)cc(OC)c1OC | i
44 | Cc1ccc(NC(=O)c2c(NC(=O)c3ccc(C)cc3)sc3c2CCC3)cc1 | i
45 | Cc1ccc(C(=O)NC2=NCCS2)o1 | i
46 | O=C(CC1Sc2ccccc2NC1=O)NC1CCCCC1 (centres undefined) | i
47 | COc1ccc(-c2csc(NC(C)=O)c2C(=O)O)cc1 | i
48 | CCCN(CCC)CCOc1cc(C)ccc1C(C)C | i
49 | Cc1ccc(S(=O)(=O)N(CC(=O)Nc2ccccc2F)CC(=O)Nc2ccccc2F)cc1 | i
50 | O=C(CC1CCCCC1)Nn1cnnc1 | i
51 | Cn1c(=O)n(CC(=O)Nc2ccc(F)cc2)c2ccccc21 | i
52 | O=C(NCc1ccccc1)C1CCN(S(=O)(=O)c2ccc3ccccc3c2)CC1 | i
53 | C=C(C)Cn1c(N)cc(=O)nc1SCC(=O)Nc1cccc(C(F)(F)F)c1 | i
54 | COCCN1C(=O)c2oc3ccc(F)cc3c(=O)c2C1c1cc(Br)c(O)c(OC)c1 (centres undefined) | 2%
55 | CCOC(=O)c1ccccc1OC(=O)CSc1ccc(S(=O)(=O)C(F)(F)F)cc1[N+](=O)[O-] | i
56 | CCOC(=O)c1ccccc1NC(=O)CN(c1cc(OC)ccc1OC)S(=O)(=O)c1ccccc1 | i
57 | COC(=O)Nc1nc2cc(Oc3cccc(Cl)c3Cl)c(Cl)cc2[nH]1 | 3%
58 | COc1ccc(NC(C)c2cc(Cl)ccc2O)cc1 (centres undefined) | i
59 | O=C(CCc1ccccc1)NCCc1nc2ccccc2[nH]1 | i
60 | CCOc1cc(C=O)ccc1OCC#N | i

# Additional compounds.
item | canonical_smiles | Mtb H37Rv
61 | COc1ccc(OC)c(NC(=S)NC(NC(=O)c2cc(OC)c(OC)c(OC)c2)C(Cl)(Cl)Cl)c1 (centres undefined) | 2%
62 | Cc1cc2nc(NCCO)n(CCOc3ccccc3)c2cc1C | 43%
63 | CC(C)c1ccc(CNC(=O)C(=O)NCCCn2ccnc2)cc1 | i
64 | Cc1ccc(NS(=O)(=O)c2ccc(NC(=O)COc3ccc(Cl)cc3C)cc2)c(C)c1 | i
65 | CCOc1ccccc1NC(=O)Nc1ccc(NS(=O)(=O)c2ccc(C)cc2)cc1 | i
66 | N#Cc1ccccc1-c1ccc(/C=C/[N+](=O)[O-])o1 | i
67 | CN(C)CCNC(=O)Cn1nc(C(F)F)cc1C1CC1 | i
68 | CCC(Cc1ccccc1)NC(=O)c1ccccc1C (centres undefined) | i
69 | COc1ccccc1CNC(=O)C(=O)Nc1ccc(C(C)(C)C)cc1 | i
70 | CN1CCN(c2ccc(NC(=O)c3ccccc3[N+](=O)[O-])cc2)CC1 | i
71 | O=C(Nc1nnc(CC(=O)N2CCOCC2)s1)c1cccs1 | i
72 | COc1cccc(NC(=O)CN(Cc2ccc(Cl)cc2Cl)S(=O)(=O)c2ccccc2)c1 | i
73 | CCc1ccccc1Nc1nc(-c2ccc(O)c(O)c2)cs1 | i
74 | CCOC(=O)c1cc(CC)sc1NC(=O)c1cccc(N2C(=O)CCC2=O)c1 | i
75 | O=S(=O)(Nc1cc(F)cc(F)c1)c1ccc(Br)cc1 | i
76 | CCn1c(SCC(=O)Nc2ccc(C)c([N+](=O)[O-])c2)nnc1-c1cccc(C)c1 | 34%
77 | COc1ccc(O)c(C(c2c[nH]c3ccccc23)c2c[nH]c3ccccc23)c1 | i
78 | CCOC(=O)c1sc2ncn(CC(=O)N3CCC(C)CC3)c(=O)c2c1C | i
79 | CC(=O)N1CCN(c2ccc(NC(=S)NC(=O)c3cc(Br)ccc3Cl)cc2)CC1 | i
80 | O=C(NCCc1ccccc1)C1CC(=O)N(c2ccc(Cl)cc2)C1 (centres undefined) | i

# Already shown: entries from further up.
item | canonical_smiles | Mtb H37Rv
79 | CC(=O)N1CCN(c2ccc(NC(=S)NC(=O)c3cc(Br)ccc3Cl)cc2)CC1 | i
80 | O=C(NCCc1ccccc1)C1CC(=O)N(c2ccc(Cl)cc2)C1 (centres undefined) | i

# Molecules from the list above with a tert-butyl group:
item | canonical_smiles | Mtb H37Rv
28 | COc1ccc(OCC#CCNC(C)(C)C)cc1 | i
34 | COc1ccc(NC(=O)NNC(=O)C2CC2c2ccc(C(C)(C)C)cc2)c(OC)c1 (centres undefined) | i
69 | COc1ccccc1CNC(=O)C(=O)Nc1ccc(C(C)(C)C)cc1 | i

# The list continues.
item | canonical_smiles | Mtb H37Rv
81 | CCC(=O)NC(=S)Nc1ccc(NC(=O)c2ccc(C)cc2)cc1 | i
82 | OCCCNC(=S)Nc1ccc(Nc2ccccc2)cc1 | 1%
83 | COc1cccc(OCCCCN2CCCCCC2)c1 | i
84 | Cc1ccc(OCCCCNC2CCCC2)cc1 | i
85 | CCc1nnc(NC(=O)CSc2nc(-c3ccccc3)cc(C(F)(F)F)c2C#N)s1 | i
86 | Cc1ccnc(NC(=O)c2ccc(S(=O)(=O)c3ccccc3)cc2)c1 | i
87 | O=C1C2C3C=CC(C2C(=O)N1Cc1cccnc1)C1C(=O)N(Cc2cccnc2)C(=O)C31 (centres undefined) | i
88 | N#CCc1ccc(NC(=O)Cc2ccccc2)cc1 | i
89 | COc1ccc2c(c1)c(=O)oc1cc(OCC(=O)C(C)(C)C)ccc12 | i
90 | O=C(Nc1cccc2cccnc12)c1sc2ccccc2c1Cl | i
91 | CNCCCCOc1ccccc1-c1ccccc1 | i
92 | CC(C)Cn1c(-c2ccncc2)n[nH]c1=S | i
93 | Cc1ccc(-c2cn3ccc4ccccc4c3n2)cc1 | 36%
94 | Cc1ccc(-c2nn(CC(=O)NCc3cc(-c4nn(C)c(=O)c5ccccc45)ccc3C)c(=O)c3ccccc23)cc1 | 5%
95 | O=C(NCc1ccccc1F)C(c1ccccc1)c1ccccc1 | i
96 | Cc1ccccc1CSCC(=O)NNC(=S)NCC1CCCO1 (centres undefined) | i
97 | CC(=O)Nc1ccc2nc(NC(=O)c3sc4ccccc4c3Cl)sc2c1 | 47%
98 | Cc1cc(C)c(NC(=O)C(Cc2ccccc2)N2C(=O)c3ccccc3C2=O)c(Cl)c1 (centres undefined) | i
99 | COC(=O)c1ccc(OCc2ccccc2Cl)cc1 | 1%
100 | Cc1n[nH]c(=S)n1-c1ccc(C(=O)O)cc1 | 3%

# (list continues)
item | canonical_smiles | Mtb H37Rv
101 | CCOC(=O)C(=O)Nc1nnc(CC)s1 | i
102 | O=C(O)C1CC=C(Cl)CC1C(=O)NC1CCCCC1 (centres undefined) | 0%
103 | C=CCNC(=S)NNS(=O)(=O)c1cc(Cl)ccc1Cl | 5%
104 | Oc1ccc(-c2n[nH]c(C(F)(F)F)c2-c2nncn2-c2ccccc2)c(O)c1 | 0%
105 | O=C(Nc1ccc(F)c(Cl)c1)c1ccccc1Br | i
106 | CC(=O)Nc1ccc(NC(=O)Cc2ccccc2)c(C)c1 | i
107 | O=C1c2ccccc2C(=O)N1CCCC(=O)N1CCCc2ccccc21 | i
108 | CCC(=O)NC(=S)Nc1ccc(Oc2ccc(NC(=S)NC(=O)CC)cc2)cc1 | i
109 | Cc1cc(Cl)c(S(=O)(=O)Nc2ccc3c(c2)CCC3)cc1OCC(N)=O | i
110 | CCC(C)N(C(C)CC)S(=O)(=O)c1ccccc1 (centres undefined) | i
111 | CCc1nnc(NC(=O)c2ccccc2Oc2ccccc2)s1 | 2%
112 | CCc1cccc(C)c1NC(=O)CSc1nnc(N)s1 | i
113 | Cc1c(Cl)cccc1NC(=O)C(C)N1C(=O)c2ccccc2C1=O (centres undefined) | i
114 | Nc1nc(SCc2ccc(Br)cc2)n[nH]1 | i
115 | O=C(Nc1cccc([N+](=O)[O-])c1)c1cnsn1 | i
116 | O=C(Oc1ccc(-n2cnnn2)cc1)N1CCOCC1 | i
117 | COc1ccc(Br)cc1CN1CCC(N2CCc3ccccc3C2)CC1 | 1%
118 | O=C1CC(C(=O)Nc2ccc(Cl)c(Cl)c2)C2(CCCCC2)O1 (centres undefined) | 0%
119 | COc1ccc(S(=O)(=O)Nc2cc(Cl)c(O)c3ccccc23)cc1 | 1%
120 | CCOC(=O)c1ccc(NC(=S)Nc2cc(C(C)(C)C)ccc2OC)cc1 | 13%
121 | COc1ccc(S(=O)(=O)N2CCOCC2)cc1N(C)S(=O)(=O)c1ccc(C)cc1 | i
122 | CC(=O)c1ccc(NC(=S)NCCCN2CCOCC2)cc1 | i
